Assay outcomes deposited in PubChem by several laboratories.
LANA-H2B inh – blockers of LANA interaction with H2A/H2B – biochemical, FP readout, HTS, primary screen | cell-free LANA-H2A/H2B peptide, fluorescence polarization | inhibition, % (no concentration beside the values) | 320,000 tested, 0.6% active | AID 2629, 2010; in the data active = inhibition mostly above about 10%, no sharp cut-off; inactive = mostly below about 6.7%;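 also: stock transfer was 7.5 nL into about 10 µL; 0% = median of vehicle wells and 100% = median of positive control wells; one replicate is shown; the record names a cut of 25% in any replicate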
Beta cell apopt – inhibitors of cytokine-induced beta cell apoptosis, primary screen, luminescence; INS-1E cytokine-induced death, ATP luminescence, 48 h; percent of positive-control rescue, neutral wells zero; protection from apoptosis, % (test concentration not listed); 300,000 tested, 0.8% active; AID 435005, 2010;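 active = all replicates at 75% or more, or half of them and the mean; inconclusive = half reach 75% but not the mean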;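 also: 0% = cytokine-treated negative control wells and 100% = positive control rescue; higher means more ATP so stronger rescue from cytokine killing; wells of about 40 µL received 100 nL stock; the first replicate is given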
T cruzi inh – inhibitors of intracellular T. cruzi growth, primary screen, luminescence, NIH3T3 host cells | T. cruzi beta-gal in NIH3T3, 90 h | inhibition, % (no concentration beside the values) | 300,000 tested, 1.4% active;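 active = mean inhibition across valid replicates above about 55%, limit read from the data; inconclusive = mean below that limit but half or more replicates reach it; inactive = mean below it, under half of replicates reach it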;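 also: signal also drops with host cell toxicity which is not excluded here; 0% = plate median of DMSO wells and 100% = zero luminescence signal; higher percent means less beta-gal luminescence so fewer parasites; stock transfer was 50 nL into about 50 µL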
RanGTP-Impb inh – inhibitors of RanGTP-importin-beta interaction, primary screen, biochemical, FRET, CFP-Ran, YFP-importin-beta, homogeneous. inhibition, % (test concentration not listed). 300,000 tested, 1.1% active. Ran GTPase (GTP-bound) - importin-beta complex. cell-free CFP-Ran/YFP-importin-beta FRET ratio. AID 2216, 2009;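 active = most replicates above 15%; inconclusive = exactly half above 15%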;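 also: 0% = DMSO wells and 100% = Ran loaded with GDP instead of GTP; wells of about 40 µL received 100 nL stock; the first replicate is given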
Vif A3G – inhibitors of Vif binding to APOBEC3G peptide, primary screen, biochemical, TR-FRET, GST-Vif 1-94, biotin-A3G peptide, dose response retest (AID 1117319). one-dose inhibition, %; IC50 in µM for titrated hits. TR-FRET GST-Vif / biotin-A3G peptide binding; higher % means a stronger effect; test concentration not given here; strong numbers were not always called active. 260,000 tested, 0.57% active;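 active = above the screen mean plus three standard deviations and confirmed in dose response; inconclusive = results disagree or hit not tested in dose response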;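 also: Vif residues 1-94 fused to GST binding biotinylated APOBEC3G peptide 110-148; 0% = full assay without inhibitor and 100% = GST in place of GST-Vif; retest series ran down from 100 µM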
Bfl-1 A1 inh – caspase 3/7 activation in MEF A1-2A-BIM cells, primary screen, A1 inhibitor project, cell-based, luminescence, HTS; Caspase-Glo 3/7 luminescence, 3 h; percent of clofoctol response, vehicle zero; 330,000 tested, 0.066% active; caspase activation, % (concentration not given with the values);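 active = over half of replicate activation scores above 10%, or exactly half above 10 with the replicate mean above 10; inconclusive = replicate mean below 10 yet half the replicates above 10; inactive = over half of replicates below 10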;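 also: wells of about 30 µL received 50 nL stock; many hits fall short of the cut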
MLL AF4-AF9 inh – inhibitors of AF4 peptide binding to AF9, primary screen, biochemical, AlphaScreen, biotin-AF4 peptide, FLAG-AF9, single point; Protein AF-9 (Homo sapiens), P42568; inhibition, % at 10 µM; 350,000 tested, 0.47% active; AID 651704, 2012;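 active = every replicate reaching a set inhibition limit, whatever the replicate mean, cut at about 25% in these data; inconclusive = mean inhibition reaches that limit but some replicates miss it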;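 also: 0% = plate neutral control median and 100% = total signal loss; the record names both 10 and 1 µM as test concentration; the first replicate is given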
Target sequence (P42568 whole entry, looked up): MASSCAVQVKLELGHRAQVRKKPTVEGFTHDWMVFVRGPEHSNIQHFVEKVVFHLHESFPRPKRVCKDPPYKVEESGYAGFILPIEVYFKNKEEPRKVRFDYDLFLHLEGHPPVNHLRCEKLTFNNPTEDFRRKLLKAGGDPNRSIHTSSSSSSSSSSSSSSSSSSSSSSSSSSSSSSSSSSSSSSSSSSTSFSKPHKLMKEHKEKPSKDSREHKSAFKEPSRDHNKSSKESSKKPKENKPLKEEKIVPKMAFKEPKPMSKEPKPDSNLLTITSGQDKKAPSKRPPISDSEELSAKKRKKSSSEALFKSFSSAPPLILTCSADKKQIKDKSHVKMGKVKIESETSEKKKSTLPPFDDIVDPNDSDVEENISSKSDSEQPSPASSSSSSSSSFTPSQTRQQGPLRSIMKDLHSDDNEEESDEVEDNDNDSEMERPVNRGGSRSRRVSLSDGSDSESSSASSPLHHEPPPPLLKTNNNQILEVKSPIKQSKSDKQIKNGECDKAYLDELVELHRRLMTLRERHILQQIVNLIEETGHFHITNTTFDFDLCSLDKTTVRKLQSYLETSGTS
Calb FLC – C. albicans growth inhibition with fluconazole, primary screen, CaCi-2 strain, Alamar Blue fluorescence; C. albicans CaCi-2 (fluconazole-resistant clinical isolate) + fluconazole, 48 h; growth inhibition, % (no concentration beside the values); 300,000 tested, 0.57% active; AID 1979, 2009;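 active = most replicates above 75%; inconclusive = exactly half above 75%; inactive = most below 75%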;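 also: all wells also contain fluconazole at 8 µg/ml as a sub-toxic cotreatment; 0% = median of DMSO wells and 100% = median of geldanamycin control wells; wells of about 8 µL received 7.5 nL stock; the first replicate is given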
Numbers without * were called inactive; ? = inconclusive; . = no result given; & = joins results of further samples. Hits appear at their usual frequency. About 4.3% of those tested had a hit in this group.

Order of values – LANA-H2B inh	Beta cell apopt	T cruzi inh	RanGTP-Impb inh	Vif A3G	Bfl-1 A1 inh	MLL AF4-AF9 inh	Calb FLC
> Cc1cc(C(F)F)n2ncc(C(=O)N3CCc4ccccc4C3)c2n1
  -3.0	-2.4	12.4	5.1	12.7%	0.5	.	-23.8
> Cc1ccc(OCCCC(=O)Nc2ccc(S(=O)(=O)N3CCOCC3)cc2)cc1
  2.6	-3.6	.	.	.	-1.1	-0.8	.
> O=C(Oc1ccccc1N1C(=O)C2CCCCC2C1=O)c1ccccc1 (stereo not given)
  -3.5	-8.0	-31.4	6.0	14.7%	-0.7	.	3.8
> CC1CCCC(C)N1NC(=O)c1cccc(S(=O)(=O)N2CCc3ccccc32)c1 (stereo not given)
  0.4	5.9	12.0	1.6	3.3%	0.7	0.0	7.3
> COc1ccc(-c2nnc(SCC(=O)NCC3CCCO3)o2)cc1 (stereo not given)
  0.0	1.8	-6.2	-2.1	.	-0.7	1.2	-3.1
> O=C(NCCc1ccccc1)C1CCCN(S(=O)(=O)c2cccc3nonc23)C1 (stereo not given)
  3.6	-3.1	12.4	5.3	6.1%	0.0	.	-7.5
> Nc1nc(-c2ccc(Oc3ccccc3)cc2)cs1
  -1.8	-2.4	3.5	3.3	.	0.4	4.0	13.3
> COc1cccc(-c2nnc(SCCC(=O)O)n2C)c1
  0.6	-0.3	-26.7	2.6	0.8%	-0.2	.	-1.5
> FC(F)(F)c1cc(-c2ccco2)nc(NCc2ccco2)n1
  0.8	-6.7	3.7	3.6	4.24µM*	-0.1	.	-5.7
> C[C@H](CO)N1C[C@H](C)[C@@H](CN(C)Cc2ccncc2)Oc2c(NC(=O)C3CCCCC3)cccc2C1=O
  1.9	-4.8	.	.	.	0.6	0.4	.
> O=C(c1ccccc1NS(=O)(=O)c1cccc([N+](=O)[O-])c1)N1CCCC1
  7.1	.	2.9	-1.6	-13.9%	-0.1	0.1	16.5
> COCC(=O)N1CCC(Oc2ccc(C(=O)NC3CCOC(C)(C)C3)cc2)CC1 (stereo not given)
  3.0	-4.7	-11.9	-1.3	.	-0.7	2.0	7.4
> Cn1cnnc1SCC(=O)Nc1sc2c(c1C(N)=O)CCC2
  -0.1	-6.2	-35.1	?	?	0.3	.	-2.8
> Cc1ccc(-n2ncc3c(NCCCN4CCCC4=O)ncnc32)c(C)c1
  -3.1	1.8	-7.0	0.7	-12.3%	-0.4	-4.2	-5.7
> COc1ccc(-n2ncc3c2CC(C)(C)CC3NC(=O)c2ocnc2C)cc1 (stereo not given)
  -2.0	0.7	6.0	2.4	.	0.8	0.8	-1.9
> COC(=O)N/N=C(\C)c1ccc(OC(F)F)cc1OC(F)F
  3.8	.	1.1	-1.1	3.9%	0.1	.	-5.0
> COCc1cc(=O)n2[nH]c(-c3cccc(Br)c3)cc2n1
  2.4	-4.6	-14.4	4.6	?	-4.7	.	2.5
> C/C(=N\Nc1ccc([N+](=O)[O-])cc1)c1ccc(N)cc1
  3.9	-8.6	4.2	-1.1	.	0.0	15.1	-24.6
> CC(C)CNS(=O)(=O)c1ccc(S(=O)(=O)N2CCCN(Cc3ccccc3)C2)cc1
  1.9	2.0	17.7	0.9	-5.9%&2.0%	0.8	-1.1	-3.7
> CNc1nc(SCC(=O)OC)nc(N2CCOCC2)n1
  0.3	3.1	-8.3	-0.5	3.4%	0.1	.	2.1
> Cn1c(SCCOc2ccccc2Cl)nnc1-c1ccncc1
  5.0	10.5	-16.6	0.9	-1.3%	0.9	.	-3.0
> C=CCNC(=S)N1CCc2c([nH]c3ccccc23)C1C (stereo not given)
  -22.9	-3.8	-3.0	0.3	.	1.5	6.4	9.6
> CC(=O)N1CCc2ccccc2C1CC(=O)O (stereo not given)
  1.0	-5.6	-4.3	5.4	.	0.2	-10.9	-18.2
> COCc1nnc(NC(=O)CCSc2ccccc2)s1
  -1.7	3.2	-12.2	-8.8	-4.3%	-0.3	.	-30.1
> Cc1ccc(NC(=O)CCc2nc3sc4c(c3c(=O)[nH]2)CCCC4)c(Br)c1
  2.5	0.2	-0.1	-1.2	1.5%	-0.1	.	0.2
> COc1cc(C(=O)NCCC(=O)N2CCC3(CC2)NCCc2[nH]cnc23)cc(OC)c1OC
  0.3	-2.8	-1.5	-1.2	.	-0.2	3.8	-5.4
> CCOc1ccc(NC(=O)N2CCC(n3c(=O)[nH]c4ccccc43)CC2)cc1
  -0.9	-4.0	4.4	0.3	2.5%	0.5	4.1	-2.5
> O=C(Cc1ccc(O)cc1)N/N=C/c1cccs1
  -6.9	-2.7	-0.4	7.4	1.0%	-0.6	0.7	-2.7
> Cc1nc2ccc(S(=O)(=O)Nc3cccc(-c4nc5cccnc5s4)c3C)cc2s1
  5.5	1.8	-9.9	2.2	17.3%	0.4	-4.0	-1.3
> CC1CCC(NC(=O)Cn2c(=O)oc3cc(S(=O)(=O)N4CCCC4)ccc32)CC1 (stereo not given)
  -0.2	3.4	0.8	0.9	.	0.3	0.5	-6.7
> CCOc1ccc(NCc2cccn2-c2nnc(N3CCC(C(=O)NCCCN4CC(C)CC(C)C4)CC3)s2)cc1 (stereo not given)
  -0.6	6.3	41.5	0.1	.	3.0	39.9*	0.6
> CC1C(c2ccccc2)N(C)C(c2ccccc2)CC1(O)c1ccc(F)cc1 (stereo not given)
  -7.0	0.1	57.8*	-2.2	?	-0.1	0.7	-5.1
> CC1(C)CN(c2cccc(C#N)c2)C1=O
  1.4	-5.6	-20.9	0.6	5.6%	0.3	-1.1	-7.5
> Fc1nc(N2CCCC2)c(F)c(Oc2ccccc2Oc2c(F)c(F)nc(N3CCCC3)c2F)c1F
  0.2	3.4	1.7	-0.6	13.9%	-1.4	.	-1.2
> CN1CCN(CCNC(=O)c2cc3c(=O)n(C)c4ccccc4c3n2C)CC1
  -2.1	10.9	-5.0	1.4	0.0%	-0.5	-2.7	-2.8
> Cn1c(SCC(=O)c2ccc(F)cc2)nnc1-c1cnccn1
  6.2	-2.6	-17.2	-1.1	1.5%	0.0	.	2.1
> CS/C(N)=N/N=C/c1cc(C)ccc1O
  1.6	2.7	-11.8	-0.2	.	-5.0	-2.2	5.7
> COc1ccc(CC(=O)N2CCN=C2SC)cc1OC
  -3.9	0.0	11.8	-0.5	-1.2%	0.2	-2.3	?
> Cc1cccc(C)c1NC(=O)Cn1cnc2c(=O)n(C)c(=O)n(C)c21
  0.5	2.9	-7.0	-2.9	17.4%	0.8	.	0.6
> COc1ccc(-c2noc(CCCC(=O)Nc3ccc(C(N)=O)cc3)n2)cc1
  -10.2	-2.8	-2.6	0.8	-4.5%	0.5	.	12.3
> CC1CN(C(=O)c2ccccc2Nc2ccc(SC(F)F)cc2)CC(C)O1 (stereo not given)
  7.7	-2.4	11.0	-0.5	-4.4%	0.2	-0.3	43.7
> COC(=O)C1CCN(CC(=O)Nc2sc3c(c2C#N)CCC3)CC1
  .	1.0	6.3	8.1	17.1%	0.1	.	5.8
> C/C(=N\NC(=O)c1ccncc1)c1ccc(N2CCOCC2)cc1
  .	0.6	.	.	4.3%	0.8	-2.6	.
> COCc1ccc(C(=O)N2CCCCC2C(=O)Nc2ccc(-n3nc(C)cc3C)cc2)o1 (stereo not given)
  4.6	-0.3	-6.6	0.6	-3.2%	-0.5	3.2	-4.3
> O=C(NCCOc1ccc(Cl)cc1)C(=O)NCC1CCCO1 (stereo not given)
  -2.0	-2.0	-10.7	5.4	-0.1%	0.3	-1.8	-11.2
> O=C(Cn1cnc2c(nnn2Cc2ccc(F)cc2)c1=O)N1CCCc2ccccc21
  1.8	-1.9	3.8	2.4	13.8%	-0.2	-34.5	10.6
> C=CCN1C(=O)[C@@H]2Cc3c([nH]c4ccccc34)C(c3cc(OC)c(OC)c(OC)c3)N2C1=S (stereo not given in full)
  -7.3	7.2	19.5	-1.3	5.7%	2.6	0.6	3.8
> O=C(O)c1ccc(Cl)c(S(=O)(=O)N2CCCCCC2)c1
  2.5	-5.3	-19.7	3.6	13.2%	0.4	-33.2	-4.1
> CCN(CCn1cccn1)C(=O)c1cc(COc2cccc3cccnc23)on1
  .	-5.2	-4.3	-1.6	1.4%	-2.0	-0.6	-11.8
> Nc1nnc(SCC(=O)Nc2ccc(S(=O)(=O)N3CCOCC3)cc2)s1
  0.1	-0.7	5.9	-4.3	16.5%	0.3	6.4	-2.5
> CC(C)=C(NC(=O)c1ccccc1)C(=O)Nc1ccc(C(=O)O)cc1
  -3.1	-2.3	-13.9	0.4	-20.9%	-0.5	1.3	-1.3
> Cc1ccc(-c2nc3c(c(=O)[nH]c(=O)n3Cc3ccccc3)n2Cc2ccccc2)o1
  .	.	18.1	-1.6	14.3%	.	3.1	25.2
> COc1ccc(CNC(=O)CC2Sc3ccccc3NC2=O)cc1 (stereo not given)
  7.2	-5.7	-11.1	2.6	2.3%	-0.1	-0.6	2.9
> CC(C)Cc1ccc(C2=CSC3=NCCN23)cc1
  4.6	.	46.7	3.3	.	0.3	13.7	-0.1
> CC(=O)N1N=C(c2ccc3nccnc3c2)CC1c1ccccc1 (stereo not given)
  3.8	5.6	4.7	?	2.8%	0.2	.	-14.4
> O=C(Nc1ccc(Cc2ccncc2)cc1)c1cc([N+](=O)[O-])ccc1N1CCOCC1
  5.7	-0.7	7.9	-5.7	2.8%	-0.7	5.0	-7.0
> CCOC(=O)c1c(C)[nH]c(NC(=O)NNC(=O)c2ccc(OC)cc2)c1C
  15.5	-7.1	.	.	2.0%	0.3	0.7	.
> CCOc1ccc(C(=O)N/N=C(\c2ccccc2)c2ccccn2)cc1
  -1.7	97.0*	54.3	-0.4	3.5%	0.1	.	41.7
> CCC(C)Sc1ccc([C@H]2N[C@@](CC(C)C)(C(=O)OC)[C@H]3C(=O)N(C)C(=O)[C@@H]23)cc1 (stereo not given in full)
  7.9	2.0	3.8	-1.5	.	0.8	-8.8	-13.1
> O=C(O)CSc1ncnc2sc(-c3ccccc3)cc12
  -0.2	-5.5	2.4	-1.4	?	-1.0	-3.5	-0.5
> Cc1ccn2c(CNCCn3nc(C)cc3C)c(C(=O)N3CCCCCC3)nc2c1
  2.6	.	-4.6	-1.2	0.5%	-0.8	-1.2	-1.8
> Cc1ccc(C(=O)CSc2nnc(CNc3nc(-c4ccccc4)cs3)n2C)cc1
  -1.7	-3.9	35.8	2.8	-14.5%	0.8	.	2.6
